Compound activity (PubChem)
Sa growth 42C: blocks Staphylococcus aureus growth. S. aureus RN4220 growth, OD600, 20 h, 42 °C; active compounds read low. relative growth, % (no concentration beside the values). 170,000 tested, 0.53% active. AID 720641;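 active = growth at 42 °C up to 50% and 20 or more points under that at 30 °C, or under 10% at both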;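 also: 300 nL library stock went into each well; scaled to the means of positive and negative controls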
HCMV UL50-53 inh: cytomegalovirus nuclear egress complex inhibition; HTRF UL50-UL53 interaction, normalized percent inhibition; AID 1918969; 190,000 tested, 0.15% active; inhibition, % (no concentration beside the values);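 active = both replicates at 50% or more, plus weaker picks with an unusually low signal ratio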;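 also: stock transfer was 100 nL into about 20 µL; 0% = negative control wells and 100% = wells with untagged competitor protein; inactives centre near -12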
GIV-Gai inh: blocks GIV peptide binding to rat Galpha-i3; 210,000 tested, 0.42% active; Galpha-i3/FITC-GIV peptide fluorescence polarization, 90 min; active compounds read low; scaled: aluminum fluoride 0%, vehicle 100%; P08753; AID 1224905; percent of control (FP), % (test concentration not listed);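 active = replicate mean at 85% of control or lower, very high polarization wells dropped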;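 also: lower values mean more displacement of the GIV peptide from Galpha-i3; wells of about 15 µL received 100 nL stock; the first replicate is given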
Target sequence (P08753 whole entry, looked up): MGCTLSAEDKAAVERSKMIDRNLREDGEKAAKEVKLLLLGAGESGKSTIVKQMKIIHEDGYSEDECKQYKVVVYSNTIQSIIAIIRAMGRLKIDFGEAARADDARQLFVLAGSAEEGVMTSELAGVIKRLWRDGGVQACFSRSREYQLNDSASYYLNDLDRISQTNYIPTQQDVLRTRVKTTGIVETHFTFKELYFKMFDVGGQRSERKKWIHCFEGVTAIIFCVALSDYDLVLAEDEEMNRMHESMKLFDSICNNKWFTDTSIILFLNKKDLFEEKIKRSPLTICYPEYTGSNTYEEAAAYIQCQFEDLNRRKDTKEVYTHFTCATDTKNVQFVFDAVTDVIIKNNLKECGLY
Sa growth 42C second temp: second read-out of Sa growth 42C, no call of its own (marks repeat the call); relative growth, %; measured here: growth at 30 °C;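 optical density after 20 h as mean of two plates; 100% = untreated growth and lower means inhibition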
Active calls of the source: *; . = no result given; & = joins results of further samples. Compounds were not picked by outcome (roughly 0.83% active in at least one column).

SMILES	Sa growth 42C	Sa growth 42C second temp	HCMV UL50-53 inh	GIV-Gai inh
O=C(CSc1n[nH]c(-c2ccccc2Cl)n1)N1CCN(c2ccccc2F)CC1	161	98	.	113
O=C(NCc1ccc2c(c1)OCO2)c1cccnc1Oc1ccccc1	123	92	2	106
COC(=O)c1c2c(nc3ccccc13)CCC2	98	98	-6&-58	113&105
CCC(=O)N1CCc2cc(S(=O)(=O)NC(Cc3ccccc3)C(=O)Nc3cccc(OC)c3)ccc21 (stereo not given)	108	90	-8	106
CCCCNC(=O)c1cc(C)on1	96	91	-16	99
CCCCN(C)S(=O)(=O)c1ccc(C)c(-c2nnc3c4ccccc4c(C)nn23)c1	92	83	.	104
Cn1ncc(C(=O)Nc2ccc(OC(F)(F)F)cc2)c1-n1cccc1	93	93	-6	94
N#CCC1C(=O)Nc2ccccc21 (stereo not given)	84	90	-10	.
O=S(=O)(c1ccc(Oc2ccc(S(=O)(=O)N3CCOCC3)cc2)cc1)N1CCOCC1	89	88	-12	111
Cc1cc2oc(=O)cc(-c3cc4ccccc4o3)c2cc1OCC#N	92	85	-33	100
Cc1noc(C)c1CSc1ccccc1C(=O)OCC(=O)NC1(C#N)CCCCC1	86	97	1	.
O=C(Nc1cc(C(F)(F)F)ccc1Cl)c1nc2ccccc2nc1N1CCCCC1	105	90	.	105
CC(=O)N1N=C(c2c(O)n(C)c(=S)n(C)c2=O)CC1c1ccccc1 (stereo not given)	.	.	0	96
Clc1ccc(-c2nc(N3CCCCC3)c3ccccc3n2)cc1	100	83	.	98
Cc1ccc(S(=O)(=O)C2(C(=O)N3CCN(c4cccc(Cl)c4)CC3)CC2)cc1	96	88	-10	114
O=C1COc2ccc(C(=O)CSC(=S)N3CCCC3)cc2N1	133	95	26	.
Cn1c2c(c(=O)n(C)c1=O)C(=O)CN2c1ccccc1	108	87	-13	.
COC(=O)c1c(O)cc(=O)[nH]c1N	94	95	-5	102
Cc1cccc(N2CCN(C(=O)c3cc4ccccc4c(=O)o3)CC2)c1C	.	.	9	94
O=C(CN1c2ccc(Br)cc2-c2ccccc2S1(=O)=O)NC1CC1	.	.	-11	103
Nc1cccc(F)c1C(=O)NCc1cccs1	93	85	-10	102
O=[N+]([O-])c1c(Cl)cc(O)c2c1C1C=CCC1C(c1ccc(Cl)cc1)N2 (stereo not given)	.	.	-69	104
CCN(CC)c1ccc2nc3c(=O)n(C)c(=O)n(C)c3nc2c1	100	86	-138	-26*
COCc1nn2cc(-c3ccccc3)nc2s1	.	.	-18	105
CC(C)(C)NS(=O)(=O)c1ccc(N2CCCCS2(=O)=O)cc1	98	88	-8	108
O=C(Nc1ccc2c(c1)OCO2)c1nn2c(c1Br)NC(c1cccs1)CC2C(F)(F)F (stereo not given)	.	.	-23	90
O=C(CCC(=O)N1CC2CCCN2c2ccccc21)NCc1ccc(Cl)cc1 (stereo not given)	80	100	.	102
CCSc1nc2sc3c(c2c(=O)n1CC)CCCC3	100	89	4&-2	107&104
Cn1nnnc1SCCCNCc1ccccc1OCc1ccccc1Cl	79	73	-5	104
CCOC(=O)c1ccccc1NC(=O)CSc1nc(=O)[nH]c2c1CCCC2	110	90	.	95&102
COCC(=O)Nc1nc(-c2ccccc2)ns1	83	88	0	103
O=S(=O)(Nc1ccccc1C(F)(F)F)c1ccc2c(c1)CCO2	133	78	-29	92
Cc1ccc(CCNC(=O)c2cc(C)[nH]n2)cc1	108	88	-9	100
Cn1c(=N)sc2ccccc21	101	64	-24	.
Nc1nc2n(n1)C(c1ccccc1)C1=C(CCCC1)N2 (stereo not given)	.	.	-31	101
Cc1oc(-c2ccno2)cc1S(=O)(=O)NCCC1=CCCCC1	.	.	-28	109
CC(=O)OCC(=O)[C@@]1(O)CC[C@H]2[C@@H]3CCC4=CC(=O)CC[C@]4(C)[C@H]3C(=O)C[C@@]21C	.	.	-32&-20	95
N#Cc1c(C(F)(F)F)cc(-c2cccs2)oc1=S	102	101	-20	.
CCOc1ccc2nc(NC(=O)c3cccn(OCc4ccccc4)c3=O)sc2c1	95	79	.	101
O=C(CN1C(=O)COc2ccc(S(=O)(=O)N3CCOCC3)cc21)N1CCN(c2ccc(F)cc2)CC1	92	89	-48	100

Shown as a hit in GIV-Gai inh (from the list above):
| Structure | Sa growth 42C | Sa growth 42C second temp | GIV-Gai inh |
| --- | --- | --- | --- |
| CCN(CC)c1ccc2nc3c(=O)n(C)c(=O)n(C)c3nc2c1 | 100 | 86 | -26* |

Later entries:
SMILES	Sa growth 42C	Sa growth 42C second temp	HCMV UL50-53 inh	GIV-Gai inh
CN(C(=O)N1CCN(c2ccccn2)CC1)c1ccccc1	99	94	2	106
C/C(=N\O)c1ccc(Sc2ccccc2)cc1	106	89	-5	102
CN1CCN(S(=O)(=O)c2ccc(NC(=O)c3ccc(Br)s3)cc2)CC1	116	105	1	102
COc1ccc(/C=C2\C(=N)N3N=C(N4CCOCC4)SC3=NC2=O)cc1	97	90	-1	105
Cc1[nH]c2ccccc2c1-c1nc2ccccc2[nH]c1=O	105	87	-22	.
COc1cc(OC)c(NS(=O)(=O)c2cc(-c3cc(C)no3)ccc2C)cc1Cl	99	93	-3	108
CCc1ccc2c(CC(=O)O)coc2c1	111	94	-8	.
CC12CCC(CC1=NNC(=O)CSc1nc3ccccc3o1)C2(C)C (stereo not given)	91	88	-24	.
CN(C1CCCCC1)S(=O)(=O)c1ccc2c(c1)c(=O)c(C(=O)NCc1ccccc1Cl)cn2C	93	92	-34	99
C=Cc1ccc2c(c1)N(C)C(=C)S2	39	28	-16	.
Cc1cc(C(=O)Nc2cccc(C(F)(F)F)c2)n[nH]1	105	99	10	113
O=C(NCCCc1nc2ccccc2n1Cc1ccccc1Cl)C1CCCCC1	106	91	-17	103
Cc1nc(Nc2ccc(NC(=O)C3CCCCC3)cc2)cc(N2CCCC2)n1	.	.	-21	101
CCN1C(=O)/C(=c2\s/c(=C3\Sc4ccc(OC)cc4N3C)c(=O)n2Cc2ccccc2)N(C)C1=S	110	97	-43	105
NC(=S)c1cccc(Br)c1	91	83	-25	.
O=C(c1cnc2sccn2c1=O)N1CCN(Cc2ccc3c(c2)OCO3)CC1	.	.	7	102
O=C(NC1(C(F)(F)F)Oc2ccccc2O1)Sc1ccccc1	75	71	.	100
COC(=O)c1ccc(Cn2nc(-c3ccc(C)cc3)ccc2=O)cc1	111	95	21	108
CCCOc1ccc(C(=O)Nc2ccc3oc(-c4ccc(N(C)C)cc4)nc3c2)cc1	99	97	-27	102
CC1CCC(NC(=O)c2ccc(CS(=O)(=O)Cc3cccc(Cl)c3)o2)CC1 (stereo not given)	111	95	0	101
O=C(NC1CC1)C1CCC(=O)N1Cc1ccccc1Cl (stereo not given)	109	91	8	100
CC12CCC(=O)N1C(C(=O)O)CS2 (stereo not given)	100	92	-6	.
CCOC(=O)C(C#N)C1(Cc2ccccc2)CCOC(C)(C)C1 (stereo not given)	99	75	-17	103
CCOC(=O)C1=C(CC)Nc2ccccc2N=C1NC(=O)CCNC(C)=O	104	96	9	.
C=CCN1C(=O)C(CC(=O)NCC)SC1=Nc1ccc(S(N)(=O)=O)cc1 (stereo not given)	107	78	-5	102
O=c1c2sc3ccccc3c2n(Cc2ccccc2F)c(=O)n1CCc1ccccc1	94	97	0	101
CC1CC(=O)c2cc(Cl)ccc2S1 (stereo not given)	104	87	-42	138
O=C(NCCC1=CCCCC1)C1CCN(C(=O)N2CCOc3ccc(Cl)cc32)CC1	128	106	2	104
Cc1nn(-c2ccccc2)c(C)c1CN(C)CC(=O)NC1CCS(=O)(=O)C1 (stereo not given)	95	91	-14	.
Cc1ccc(CN2C(=O)CCC2C(=O)NCc2ccc3c(c2)OCO3)cc1 (stereo not given)	104	82	2	99
O=C(CO)N/N=C\c1c(F)cccc1Cl	111	79	-48	108
CC(C)NC(=O)CSc1nc2ccccc2n1CC(=O)N1CCOCC1	92	93	-14	101
O=C1c2ccc(-c3ccc4c(c3)C(=O)N(CCO)C4=O)cc2C(=O)N1CCO	113	95	-127	102
Cc1ccc(NC(=O)CSc2nc(=O)cc(N)n2-c2ccccc2)cc1	105	90	15	106
O=C(COC(=O)c1ccc(Br)o1)NCC1CCCCC1	104	90	-18	.
NS(=O)(=O)c1ccc2nc(NC(=O)c3cc(-c4ccccc4)nc4ccccc34)sc2c1	.	.	2	104
COc1cnn(C2CCCCC2)c(=O)c1Cl	96	53	-8	105
CCn1cc(C(=O)NCCC(C)C)c(=O)c2cc(S(=O)(=O)N(C)C3CCCCC3)ccc21	103	87	-11	97
COc1ccc(S(=O)(=O)N2CCCCCC2)cc1C(=O)NC1CCCCC1	84	94	-20	.
O=C1CC(c2ccccc2)CC(O)=C1C=NCc1ccccc1 (stereo not given)	105	88	-39	.
CC(=O)Nc1ccc(-c2nnc3c4ccccc4c(C)nn23)cc1	102	84	7	107
O=C(O)COCC(=O)Nc1nc(-c2ccc(F)c(F)c2)cs1	89	85	-19	99
O=C(C1CCN(S(=O)(=O)c2cccc3nonc23)CC1)N1CCN(c2ccc(F)cc2)CC1	115	80	-93	105
C=Cc1ccc(Cn2c(C(=O)O)c(CNCc3cc(Br)ccc3OC)c3ccc(C)cc32)cc1	126	93	.	110
Cc1ccc(CNc2nc3c(c(=O)[nH]c(=O)n3C)n2Cc2ccccc2C)cc1	87	87	-3	.
COC(=O)CCNC(=O)N1CCN(c2nnc(C)c3c(C)n(-c4ccc(Cl)cc4)nc23)CC1	102	87	.	105
CC(C)c1ccc(NC(=O)CC2Oc3ccccc3NC2=O)cc1 (stereo not given)	98	79	-10	99
CC1CCN(C(=O)c2cc3c(s2)-c2ccccc2SC3)CC1	.	.	-40	97
COc1cc2ccccc2cc1C(=O)Nc1ccc2c(c1)OCCO2	130	86	.	106
COc1ccccc1NC(=O)c1sc2nc3c(cc2c1N)CN(Cc1ccccc1)CC3	93	69	-16	110

Among those listed so far, 10 have two or more sulfur atoms:
SMILES	Sa growth 42C	Sa growth 42C second temp	HCMV UL50-53 inh	GIV-Gai inh
O=S(=O)(c1ccc(Oc2ccc(S(=O)(=O)N3CCOCC3)cc2)cc1)N1CCOCC1	89	88	-12	111
O=C1COc2ccc(C(=O)CSC(=S)N3CCCC3)cc2N1	133	95	26	.
CC(C)(C)NS(=O)(=O)c1ccc(N2CCCCS2(=O)=O)cc1	98	88	-8	108
CCSc1nc2sc3c(c2c(=O)n1CC)CCCC3	100	89	4&-2	107&104
N#Cc1c(C(F)(F)F)cc(-c2cccs2)oc1=S	102	101	-20	.
CN1CCN(S(=O)(=O)c2ccc(NC(=O)c3ccc(Br)s3)cc2)CC1	116	105	1	102
CCN1C(=O)/C(=c2\s/c(=C3\Sc4ccc(OC)cc4N3C)c(=O)n2Cc2ccccc2)N(C)C1=S	110	97	-43	105
C=CCN1C(=O)C(CC(=O)NCC)SC1=Nc1ccc(S(N)(=O)=O)cc1 (stereo not given)	107	78	-5	102
NS(=O)(=O)c1ccc2nc(NC(=O)c3cc(-c4ccccc4)nc4ccccc34)sc2c1	.	.	2	104
CC1CCN(C(=O)c2cc3c(s2)-c2ccccc2SC3)CC1	.	.	-40	97

(cont.)
SMILES	Sa growth 42C	Sa growth 42C second temp	HCMV UL50-53 inh	GIV-Gai inh
O=C(Nc1cccc(Cl)c1Cl)c1ccc2c(c1)N(Cc1cccc(Cl)c1)C(=O)c1ccccc1S2(=O)=O	114	99	3	110
Cc1ccc(Cn2c(CN3CCC(C(=O)NCc4cccnc4)CC3)cc3ccccc32)cc1	64	44	.	102&108
Cc1noc(-c2ccc(NC(=O)C3CC(=O)N(c4ccccc4C)C3)cc2)n1 (stereo not given)	.	.	-11	104
CNc1nc(-c2ccccc2)cc(-c2ccccc2)n1	45	59	1	.
CCO/C=C1\SC(=S)N(CCc2ccc(OC)c(OC)c2)C1=O	101	96	-42	147
Cc1[nH]c2ccccc2c1C(=O)CC#N	101	85	1	.
CCCc1cc(=O)n2[nH]c(CNc3ccccc3F)nc2n1	.	.	-39	105
CC(=O)Oc1ccccc1C(=O)Nc1ncc([N+](=O)[O-])s1	47	12	-157	.
CN(C)c1ccc(CNC(=O)c2ccc(NC(=O)c3nsc4ccccc34)cc2)cc1	110	78	.	103
CCCCNc1ncnc2c1nnn2Cc1ccccc1Cl	94	77	-10	105
CCCN1C(=O)C(C#N)=C(C)/C(=C\c2ccc(-c3ccc(Br)cc3)o2)C1=O	92	86	-6	105
O=C(COc1ccc(S(=O)(=O)NC2CCCCC2)cc1Cl)NCc1ccccn1	106	105	15	99
Cn1nc(C(=O)NCc2cccnc2)c2ccccc2c1=O	98	89	-7	104
O=C(O)c1ccccc1SCc1cc(=O)n2ccsc2n1	75	71	0	108
Cc1nonc1NC(=O)c1cccs1	109	81	-1	.
CC1(c2ccc(Br)cc2)NC(=O)CS1 (stereo not given)	111	80	-7	107
O=S(=O)(NC1CCCCCC1)c1ccc(-c2nnc(C3CC3)o2)s1	.	.	-10	108
CC1CCN(C(=O)Cn2c(=O)oc3cc(S(=O)(=O)N4CCCCC4)ccc32)CC1	90	86	-22	105
Cc1ccc(C)c(NC(=O)CSc2ncnc3sc(C)c(C)c23)c1	101	82	-5	.
CCn1ccc2c(OCC(=O)Nc3ccc(C(C)=O)cc3)cccc2c1=O	112	92	.	98
CCOC(=O)c1ccc(N2C(=O)c3[nH]nc(-c4ccc(OC)cc4)c3C2c2cccc(O)c2)cc1 (stereo not given)	96	64	-9	108
O=C(c1cccn2c(=O)c3c4c(sc3nc12)CCCC4)N1CCc2ccccc2C1	.	.	-18	107
